Screening results (PubChem)
Anaer choline gr = inhibitors of anaerobic choline-dependent gram-negative bacterial growth; AID 1963822; Gram-negative bacterium anaerobic choline minimal medium, absorbance growth; stronger effect = lower value; many inactives read as strong as hits in the columns shown; calls only; actives 0.2% (n = 55,000);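 active = growth z-score on choline under -2 at 7 or 20 h with little or no fall on glycerol, limits in tiers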;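 also: stock transfer was 300 nL into about 50 µL; the organism is E. coli; final concentration not given here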
Anaer choline gr early = also measured in Anaer choline gr; calls as there; z-score; measured here: choline growth z-score, timepoint 1;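 score of optical density at 7 h as mean of two plates; lower means less growth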
An asterisk follows results filed as active; i = inactive; & = joins results of further samples.

SMILES	Anaer choline gr early	Anaer choline gr
CCOC(=O)C1CCN(C(=O)c2cc3cc4cc(OC)ccc4nc3o2)CC1	0.01	i
Cc1cccc(N2CCN(CC(=O)Nc3ccc4[nH]c(=O)[nH]c4c3)CC2C)c1 (stereo not given)	-0.74	i
COc1ccc(OC)c(C2c3c(-c4ccccc4)n[nH]c3C(=O)N2c2ccc(Cl)cc2)c1 (stereo not given)	0.06	i
Cn1c(=O)n(Cc2ccncc2)c(=O)c2cnc(-c3cccnc3)nc21	-1.4	i
CC(C)NC(=O)c1cccc(-n2nnc3cccnc32)c1	-1.4	i
Cc1ccc(N(Cc2nc3nc(C)cc(C)n3n2)C(=O)c2ccccc2)cc1	-0.82	i
CCCCC(=O)Nc1cc2c(cc1N1CCOCC1)n(C)c(=O)n2C	-0.51	i
C#C[C@]1(O)CCC2C3CCc4cc(OC5CCCC5)ccc4C3CC[C@@]21C (stereo not given in full)	0.7	i
CCOC(=O)C1CCN(C(=O)CN2C(=O)C(C)(C)c3ccccc32)CC1	-0.37	i
O=C(CCC(=O)N1CCc2cc(S(=O)(=O)N3CCCCC3)ccc21)N1CCOCC1	-0.71	i
COC(=O)c1sccc1NC(=O)N1CCCC1c1ccc(Cl)cc1 (stereo not given)	-0.43	i
O=C1SCN(Cc2ccccc2)CN1Cc1ccccc1	0.05	i
CC(C)CNC(=O)c1c2c(nn1C)-c1ccccc1SC2	0.21	i
Cc1cccc(N2CCN(c3ccc(NC(=O)c4ccccc4Cl)c(C(=O)O)c3)CC2)c1C	0.21	i
C[C@@](Cc1ccc(O)c(O)c1)(NN)C(=O)O	-0.21&-0.11&0.32	i
COc1cc(C2Nc3ccc(Cl)cc3[C@H]3OCC[C@@H]23)cc(OC)c1OC (stereo not given in full)	-1.4	i
O=C(C(=O)N1CCCc2ccccc21)c1ccc[nH]1	-0.26	i
COC(=O)c1ccccc1NC(=O)CSc1nc(C)cc(C)c1C(=O)Nc1cccc(C)c1	0.42	i
C[N+](C)(C)CCOC(N)=O	0.78&0.19&0.61	i
O=S(=O)(NCCc1nc(-c2ccc(Cl)cc2)n[nH]1)c1cccc2nsnc12	-1.4	i
Clc1ccc(Cl)c(-c2ccc(CNC3CC3)o2)c1	-0.24	i
O=c1[nH]c(SCc2ccc(Cl)cc2)nc2c1cnn2-c1ccc(F)cc1	1.4	i
Cc1ccc(NS(=O)(=O)c2cn(C)cn2)c(Cl)c1	-0.56	i
CCSc1nn(CC(=O)Nc2ccc(OC)cc2)c(N)c1S(=O)(=O)c1ccc(OC)cc1	1	i
COc1ccc(Cn2nnc3cc(C(=O)NCc4ccccc4OC)ccc32)cc1	-0.04	i
Cc1cc(C)n(C(=O)c2sccc2S(=O)(=O)N2CCN(c3ccccc3)CC2)n1	1.1	i
Cc1nc(NCc2ccccc2)cc(-c2ccccc2)n1	0.55	i
COc1ccc(NC(=O)c2cc3c([nH]c2=O)CC(C)(C)CC3=O)cc1	0.18	i
CCn1cnc2cc(-c3noc(CN4C(=O)COc5ccccc54)n3)ccc21	2.2	i
COC(=O)c1ccc2c(=O)n(-c3cc(F)cc(F)c3)c(N3CCOCC3)nc2c1	-0.27	i
COc1ccc(OC)c(CCNC(=O)CNC(=O)C2(C)Cn3c(cc4ccccc43)C(=O)N2C)c1 (stereo not given)	-0.08	i
O=C1c2cccnc2C(=O)N1CCc1ccc(S(=O)(=O)N2CCN(c3ccccc3)CC2)cc1	-1.9	i
N=C(N)S/C=C\C(=O)O	-0.01	i
CCNC(=O)C(CC)N1C(=O)CCCc2ccccc21 (stereo not given)	0.11	i
O=C(COc1ccccc1F)Nc1cccc(OCc2cc(=O)n3ccccc3n2)c1	0.73	i
CN[C@H]1[C@@H](O)[C@H](O[C@H]2[C@@H](O)[C@@H](OC3OC(CN)=CCC3N)[C@H](N)C[C@@H]2N)OC[C@@]1(C)O (stereo not given in full)	-0.01	i
CCCCC[C@](C)(O)/C=C/[C@@H]1[C@@H](C/C=C\CCCC(=O)O)[C@@H](O)C[C@H]1O	0.67	i
CN1CCN(CC(=O)N2c3ccccc3C(=O)Nc3cccnc32)CC1	0.45&0.65&-0.12	i
CCOc1ccc(NC(=O)CSc2nc3c(c(=O)[nH]2)CN(Cc2ccc(OC)cc2)CC3)cc1	-1.6	i
COc1ccc(-c2cc(C(=O)N3CCCC3c3ccc(Cl)cc3)on2)cc1 (stereo not given)	1.4	i

In a second layout: entries from further up.
Anaer choline gr early | Anaer choline gr | SMILES
0.45&0.65&-0.12 | i | CN1CCN(CC(=O)N2c3ccccc3C(=O)Nc3cccnc32)CC1
-1.6 | i | CCOc1ccc(NC(=O)CSc2nc3c(c(=O)[nH]2)CN(Cc2ccc(OC)cc2)CC3)cc1

Carrying on:
SMILES	Anaer choline gr early	Anaer choline gr
Cc1c(S(=O)(=O)N2CCCCC2C)cc(-c2nc(-c3cccc(Cl)c3)cs2)n1C (stereo not given)	0.8	i
CN1CCN(S(=O)(=O)c2ccc3c(c2)CCN3C(=O)CCC(=O)N2CCCCC2)CC1	-0.81	i
O=C(c1ccc2c(c1)OCCCO2)N1CCCC1	-1.3	i
COC(=O)CNC(=O)Nc1c(-c2cccnc2)[nH]c2ccccc12	-0.25	i
O=C(O)c1cc(N2CCN(c3ccc(F)cc3)CC2)ccc1NC(=O)C1CCCC1	-0.38	i
Cc1nc2nc3c(c(N4CCN(c5ccccn5)CC4)n2n1)CCC3	0.23	i
Cc1nn(C(=O)Nc2cccc(F)c2)c2ccccc12	3.1	i
Cc1ccc(C(=O)N2CCC(Nc3ncnc4c3CCC4)CC2)s1	-0.19	i
Cc1c(CNCCc2c[nH]c3ccccc23)c(C(=O)O)c(C)n1Cc1cccc(F)c1	-0.14	i
CCC(C)NC(=O)N1CCNC(=O)C1 (stereo not given)	0.28	i
CCc1cc(C(=O)Nc2cc(C)on2)no1	-0.19	i
CS(=O)(=O)Nc1cc(C(=O)O)ccc1N1CCN(C(c2ccccc2)c2ccccc2)CC1	-0.1	i
CCOc1ccc(CC(=O)NCCc2sc3nc(-c4ccc(F)cc4)nn3c2C)cc1	-1.5	i
NC(=O)c1c(-c2ccc(F)cc2)nc2n1CCS2(=O)=O	-0.53	i
CC1CCC(NC(=O)C2(C)Cn3c(cc4occc43)C(=O)N2CCCOC(C)C)CC1 (stereo not given)	0.23	i
Fc1ccccc1-c1nnc2sc(-c3ccccc3)nn12	-1	i
c1ccc(CNc2nc3c(-c4ccccc4)nnn3c3ccccc23)cc1	2.5	i
COCCn1c(SCc2nc(-c3ccc(F)cc3)no2)nc2cc3c(cc2c1=O)OCO3	0.68	i
COc1ccc(N(C(=O)c2cccnc2)S(=O)(=O)c2cccc3cccnc23)cc1	-0.21	i
Cc1csc(-c2cc(S(=O)(=O)NCC3CCCO3)cn2CC(=O)N2CCCCC2)n1 (stereo not given)	0.45	i

Profiles from above. Order of values: Anaer choline gr early | Anaer choline gr
O=C(O)c1cc(N2CCN(c3ccc(F)cc3)CC2)ccc1NC(=O)C1CCCC1 is listed as -0.38 | i
O=C(C(=O)N1CCCc2ccccc21)c1ccc[nH]1 is listed as -0.26 | i
Clc1ccc(Cl)c(-c2ccc(CNC3CC3)o2)c1 is listed as -0.24 | i
CCSc1nn(CC(=O)Nc2ccc(OC)cc2)c(N)c1S(=O)(=O)c1ccc(OC)cc1 is listed as 1 | i
C[N+](C)(C)CCOC(N)=O is listed as 0.78&0.19&0.61 | i

(list continues)
SMILES	Anaer choline gr early	Anaer choline gr
O=C(c1cc2cccnc2n(Cc2ccc(F)cc2)c1=O)N1CCCC1	0.53	i
COc1ccc(-c2noc(CCc3nnc4ccc(N5CCN(c6ccccn6)CC5)nn34)n2)cc1	0.42	i
CC1(C)C[C@H]1C(=O)N/C(=C\CCCCSC[C@@H](N)C(=O)O)C(=O)O	0.56	i
O=C(Cc1cccs1)N1CCC(Nc2ncnc3c2CCC3)C1 (stereo not given)	0.24	i
CC(c1cc2ccccc2s1)N(O)C(N)=O (stereo not given)	1.4&0.2&0.34	i
O=C(Nc1ccc(N2CCC(c3ccccc3)C2)c(C(=O)O)c1)c1ccccc1Cl (stereo not given)	-0.7	i
CCc1nc(C)cn1S(=O)(=O)c1ccc2c(c1)N(C(C)=O)CC(C)O2 (stereo not given)	-0.13	i
CCc1ccc2c(c1)[C@H]1OCC[C@H]1C(c1ccc(C(=O)O)cc1)N2 (stereo not given in full)	0.04	i
CCn1c(SCC(=O)N2CCCC2)nnc1-c1nc(-c2ccc(OC)cc2)no1	0.18	i
Cc1cc(C(=O)N2CCCC2c2ccccc2F)no1 (stereo not given)	0.06	i
COc1cccc(N2CCN(C(=O)CCS(=O)(=O)c3ccc4c(c3)CC(=O)N4C)CC2)c1	-0.98	i
O=C1CCc2ccc(OCCCCN3CCN(c4cccc(Cl)c4Cl)CC3)cc2N1	0.26&0.93&0.49	i
OC(CN1CCNCC1)Cn1c2ccc(Br)cc2c2cc(Br)ccc21 (stereo not given)	-3.6	i
Cc1cc(C)c(S(=O)(=O)Nc2cnc(N3CCCC3)c(C(=O)O)c2)cc1C	-0.44	i
CCC(=O)C1=C(c2ccc(Br)cc2)N(C(=O)CC)n2c(C)nnc2S1	-0.01	i
CCN1CCN(c2nnc(-n3cccc3CNc3ccc4c(c3)OCO4)s2)CC1	0.22	i
Cc1ccc(NC(=O)C2Sc3nnc(-c4ccccc4)n3NC23CCCCC3)cc1Cl (stereo not given)	-0.34	i
CCSc1ncc2c(=O)n(CC(=O)Nc3ccccc3OC)cnc2n1	0.17	i
O=S(=O)(c1ccc(Cl)cc1)N1CCCC(c2nc(-c3ccc4c(c3)OCO4)no2)C1 (stereo not given)	-0.4	i
CN(CCc1noc(COc2ccccc2F)n1)S(=O)(=O)c1ccccc1F	0.05	i
COc1ccc(NS(=O)(=O)c2cc(-c3cc(C(F)(F)F)[nH]n3)sc2C)cc1Cl	-1.1	i
Cc1cc(N2CCN(C)CC2)nc2ccc(NC(=O)Nc3ccccc3Br)cc12	-1.2	i
Nc1ncnc2c1ncn2[C@@H]1O[C@H](CO)[C@H](O)C1O (stereo not given in full)	1.4	i
O=C(NC1CCCC1)c1cccc(Oc2cc(-c3ccc(F)cc3)ncn2)c1	1.1	i
Cc1ccc(C2c3c(n[nH]c3C)C(=O)N2c2ccc(Br)cc2)cc1 (stereo not given)	-0.71	i
O=C(c1cc(-c2cccnc2)n[nH]1)N1CCCC(C(=O)N2CCN(c3ccccc3)CC2)C1 (stereo not given)	0.21	i
CC(=O)[C@H]1CC[C@H]2[C@@H]3C=CC4=CC(=O)CC[C@@]4(C)[C@@H]3CC[C@]12C	-0.14	i
CCOC(=O)c1cc(S(=O)(=O)N2CCCC2C(=O)NCCC2=CCCCC2)cn1C (stereo not given)	-0.45	i
Cc1ccc(Cn2cccc2CNS(=O)(=O)c2c(C)noc2C)cc1	-0.41	i
Cc1noc2c1C(c1ccsc1)C1=C(CC(C)(C)CC1=O)N2 (stereo not given)	-1	i
CCCCCCCCCCCCCCCC(=O)O[C@@H]1[C@@H](O)[C@@H](O)[C@@H](C(NC(=O)[C@@H]2C[C@@H](CCC)CN2C)C(C)Cl)O[C@@H]1SC (stereo not given in full)	-1.3	i
COC(=O)c1ccc(Oc2nc(N3CCCC3)c(Cl)c3c2N(C2CCCCC2)CCS3(=O)=O)cc1	-1.4	i
O=C1CCCN2N=C(SCC(=O)Nc3ccc(Cl)cc3)SC2=N1	0.19	i
COc1ccc2cc(C(=O)N3CCc4c(c(C(=O)NCc5ccccc5)nn4C)C3)[nH]c2c1	0.98	i
COc1ccc(Cl)cc1NC(=O)c1c(-c2ccccc2Cl)noc1C	0.19	i
CC(=O)Nc1ccc(S(=O)(=O)NCc2ccc3c(c2)CCN3C(=O)c2ccc(F)cc2)cc1	-0.12	i
CC(C)NCC(O)c1ccc(NS(C)(=O)=O)cc1 (stereo not given)	0.57&0.41&-0.7&0.41&0.2	i
O=S(=O)(O)CCSSCCS(=O)(=O)O	0.64	i
Clc1ccc(-c2noc(-c3cccnc3NCc3ccccc3)n2)cc1	-0.16	i
COC(=O)CNC(=O)NCCc1nc2cccnc2n1-c1ccccc1	0.31	i

The list goes on; the last 2 above are carried over.
SMILES	Anaer choline gr early	Anaer choline gr
Clc1ccc(-c2noc(-c3cccnc3NCc3ccccc3)n2)cc1	-0.16	i
COC(=O)CNC(=O)NCCc1nc2cccnc2n1-c1ccccc1	0.31	i
COCCCNC(=O)NCCCn1c(C(F)(F)F)nc2cccnc21	0.03	i
COc1ccc(-n2nc(C(=O)Nc3cc(Cl)ccc3OC)c(=O)n(C)c2=O)cc1	0.07	i
CN1Cc2c(C(=O)OC(C)(C)C)ncn2-c2ccsc2C1=O	-1.1	i
CC1=C(c2ccc(C(C)C)cc2)S(=O)(=O)N=C1N1CCC(C(=O)NCC2CCCO2)CC1 (stereo not given)	0.18	i
Cn1c(=O)c(-c2noc(C(=O)NCC3CCCO3)n2)nn(-c2ccc(F)cc2)c1=O (stereo not given)	-0.25	i
c1ccc(-c2noc(-c3cc(N4CCOCC4)nc4ccccc34)n2)cc1	0.56	i
O=C(NCCCN1CCC(N2CCCCC2)CC1)C1CCCN(c2nnc(-n3cccc3)s2)C1 (stereo not given)	-1.6	i
Cc1ccc(CN2c3ccccc3-c3nc(SCC(=O)Nc4cccc(C)c4)ncc3S2(=O)=O)cc1	0.34	i

A portion of the library. The share of hits here may be higher or lower than overall.
